Bioassay records: PubChem, several laboratories
BJeLR lethal: MLPCN primary cell-based screen for lethality selective to Ras in HRASV12 cells; BJeLR (HRASV12) viability, CellTiter-Glo ATP luminescence, 48 h; reference of the scale not given here; inhibition, % (test concentration not listed); actives 0.17% (n = 300,000);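 active = replicate mean above 50%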;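 note: 50 nL library stock added to about 25 µL; numbers are from one replicate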
PrP 5UTR inh: inhibition of PrP 5' UTR reporter expression | AID 488862, 2010 | actives 0.35% (n = 340,000) | inhibition, % (test concentration not listed) | cell-based PrP 5' UTR mRNA reporter, plate reader;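 active = every replicate at 50% or more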;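 note: 0 = median of the neutral control wells; tested in H4 reporter cells; numbers are from one replicate; inactives centre near -14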
Bead autofluor: compound fluorescence in toxin protease inhibitor counterscreen; fluorescence intensity (concentration not given with the values); actives 3.1% (n = 360,000); compound autofluorescence counterscreen, microsphere flow cytometry; stronger effect = higher value;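 active = at least 3 SD above the mean of all compounds, about 16000 in these data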;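 note: 100 nL of 1 mM stock went into each well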
Mtb hypoxia inh: PubChem AID 1159583. M. tuberculosis hypoxia-regulated fluorescent reporter, fluorescence. fluorescence inhibition, % (concentration not given with the values). actives 0.1% (n = 300,000);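 active = 35 to 45% if threefold the growth effect, above 45% if 1.5-fold the growth effect; inactive = the rest, general growth blockers included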;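 note: wells of about 50 µL received 100 nL stock; 0% = vehicle wells and 100% = reference inhibitor wells; whole bacteria with a GFP reporter of the hypoxia response; strong numbers were not always called active; many hits fall short of the cut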
RN4220 kill: growth inhibition of S. aureus RN4220, primary screen, OD600. 16 h. actives 0.33% (n = 330,000). inhibition, % (no concentration beside the values). AID 1259311, 2017;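 active = z-score of -3 or lower and OD600 up to 0.18 on both plates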;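 note: plate controls were untreated cells for no effect and reference antibiotic for full effect; stock transfer was 100 nL into about 80 µL; one replicate is shown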
ugtP null kill: growth inhibition of ugtP-null S. aureus, primary screen, RN4220 ugtP deletion, OD600. actives 0.54% (n = 330,000). 16 h; some inactives read as strong as hits. growth inhibition, % (concentration not given with the values);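 active = z-score under -3 and OD600 up to 0.15 on both plates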;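 note: plate controls were untreated wells for no effect and antibiotic for full effect; wells of about 80 µL received 100 nL stock; the first replicate is given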
Mtb hypoxia inh growth: further read-out of Mtb hypoxia inh, marked with its call; growth inhibition, %; measured here: M. tuberculosis growth (absorbance);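 0% = vehicle and 100% = reference antibiotic; read after six days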
Numbers without * were called inactive.

Preview:
Cc1cc(=O)oc(C)c1C(=O)OCC(=O)c1ccc(Br)cc1 was read as BJeLR lethal 0, PrP 5UTR inh -8, Bead autofluor 2429, Mtb hypoxia inh 6, RN4220 kill 25, ugtP null kill 13 and Mtb hypoxia inh growth -2.
Screening Cc1cc(C(=O)COC(=O)c2cccn2C)c(C)n1Cc1ccco1 returned BJeLR lethal 4, PrP 5UTR inh 3, Bead autofluor 4740, Mtb hypoxia inh 5, RN4220 kill 5.3, ugtP null kill 10 and Mtb hypoxia inh growth 5.
For C#CCOCCOCCOCCNc1nc(N2CCN(C(=O)C([C@@H](C)CC)n3cc(C(N)Cc4ccc(O)cc4)nn3)CC2)nc(N2CCN(C(=O)[C@H](CCC(=O)O)n3cc(C(N)[C@H](C)CC)nn3)CC2)n1 (some centres undefined) the results were BJeLR lethal 5, PrP 5UTR inh -4 and Bead autofluor 4175.
CCOC(=O)C1=C(C)NC(C)=C(C(=O)OCC)C1C(=O)OCC(=O)N1CCc2ccccc21 was read as BJeLR lethal -10, PrP 5UTR inh -6, Bead autofluor 9649, Mtb hypoxia inh -7, RN4220 kill -1.6, ugtP null kill -5 and Mtb hypoxia inh growth -2.
`CN(c1ccc(OCC(=O)OCC(=O)Nc2cccc([N+](=O)[O-])c2)cc1)S(=O)(=O)c1ccc(F)cc1` gave BJeLR lethal 2, PrP 5UTR inh -13, Bead autofluor 3923, Mtb hypoxia inh -3, RN4220 kill 15, ugtP null kill 5 and Mtb hypoxia inh growth -2.
For CCCc1cc(=O)[nH]c(/N=C(/NC(=O)C(C)N2C(=O)c3ccccc3C2=O)Nc2ccccc2)n1 (centres undefined) the results were BJeLR lethal 4, PrP 5UTR inh -21 and Bead autofluor 3593.

All compounds of this part, repeating the preview:
Cc1cc(=O)oc(C)c1C(=O)OCC(=O)c1ccc(Br)cc1 was read as BJeLR lethal 0, PrP 5UTR inh -8, Bead autofluor 2429, Mtb hypoxia inh 6, RN4220 kill 25, ugtP null kill 13 and Mtb hypoxia inh growth -2.
Screening Cc1cc(C(=O)COC(=O)c2cccn2C)c(C)n1Cc1ccco1 returned BJeLR lethal 4, PrP 5UTR inh 3, Bead autofluor 4740, Mtb hypoxia inh 5, RN4220 kill 5.3, ugtP null kill 10 and Mtb hypoxia inh growth 5.
For C#CCOCCOCCOCCNc1nc(N2CCN(C(=O)C([C@@H](C)CC)n3cc(C(N)Cc4ccc(O)cc4)nn3)CC2)nc(N2CCN(C(=O)[C@H](CCC(=O)O)n3cc(C(N)[C@H](C)CC)nn3)CC2)n1 (some centres undefined) the results were BJeLR lethal 5, PrP 5UTR inh -4 and Bead autofluor 4175.
CCOC(=O)C1=C(C)NC(C)=C(C(=O)OCC)C1C(=O)OCC(=O)N1CCc2ccccc21 was read as BJeLR lethal -10, PrP 5UTR inh -6, Bead autofluor 9649, Mtb hypoxia inh -7, RN4220 kill -1.6, ugtP null kill -5 and Mtb hypoxia inh growth -2.
`CN(c1ccc(OCC(=O)OCC(=O)Nc2cccc([N+](=O)[O-])c2)cc1)S(=O)(=O)c1ccc(F)cc1` gave BJeLR lethal 2, PrP 5UTR inh -13, Bead autofluor 3923, Mtb hypoxia inh -3, RN4220 kill 15, ugtP null kill 5 and Mtb hypoxia inh growth -2.
For CCCc1cc(=O)[nH]c(/N=C(/NC(=O)C(C)N2C(=O)c3ccccc3C2=O)Nc2ccccc2)n1 (centres undefined) the results were BJeLR lethal 4, PrP 5UTR inh -21 and Bead autofluor 3593.
COc1ccc(NC(=O)C(=O)N2N=C3CCCCC3C2(O)C(F)(F)F)cc1 (centres undefined) was read as BJeLR lethal 2, PrP 5UTR inh 40, Bead autofluor 4212, Mtb hypoxia inh 7, RN4220 kill 5.7, ugtP null kill 4 and Mtb hypoxia inh growth 9.
Screening CC[C@H](C)[C@H](NC(N)=O)C(=O)Nc1ccc(NC(C)=O)cc1 returned BJeLR lethal -14, PrP 5UTR inh -34, Bead autofluor 4379, Mtb hypoxia inh 7, RN4220 kill 1.8, ugtP null kill 1 and Mtb hypoxia inh growth 7.
Screening Cc1cc(O)c2c(c1)CC1C3CCC4CC(=O)CCC4(C)C3CC(=O)C21C (centres undefined) returned PrP 5UTR inh -7, Bead autofluor 3661, Mtb hypoxia inh 9, RN4220 kill -3.2, ugtP null kill -1 and Mtb hypoxia inh growth 11.
Cn1c(CCN2CCOCC2)nc2cc(NC(=O)COc3ccc(Cl)cc3)ccc21 was read as BJeLR lethal 6, PrP 5UTR inh -27, Bead autofluor 9750, Mtb hypoxia inh 15, RN4220 kill 3.5, ugtP null kill 9 and Mtb hypoxia inh growth 11.
C/C=C/C=C(/NC(=O)c1ccccc1)C(=O)Nc1ccccc1 was read as BJeLR lethal 4, PrP 5UTR inh -8, Bead autofluor 6551, Mtb hypoxia inh -4, RN4220 kill 1.9, ugtP null kill 1 and Mtb hypoxia inh growth 3.
Screening Cc1c(NC(=O)Nc2cccs2)cccc1[N+](=O)[O-] returned BJeLR lethal -1, PrP 5UTR inh -9, Bead autofluor 4401, Mtb hypoxia inh -2, RN4220 kill -4.0, ugtP null kill -12 and Mtb hypoxia inh growth 12.
Cn1c(=O)[nH]c(=O)c2c1nc(SCC(O)CCl)n2Cc1ccccc1 (centres undefined) was read as BJeLR lethal -7, PrP 5UTR inh -10, Bead autofluor 3407, Mtb hypoxia inh 25, RN4220 kill 2.7, ugtP null kill 2 and Mtb hypoxia inh growth 11.
`Cc1ccc(S(=O)(=O)N2CCOCC2)cc1NC(=O)CNCc1ccccc1Cl` gave PrP 5UTR inh -4, Bead autofluor 5972, Mtb hypoxia inh 0, RN4220 kill -0.9, ugtP null kill -2 and Mtb hypoxia inh growth 4.
CCC(=NNC(=O)c1nnn(-c2nonc2N)c1-c1ccc2c(c1)OCO2)c1ccccc1 was read as Mtb hypoxia inh 18, RN4220 kill 4.0, ugtP null kill 1 and Mtb hypoxia inh growth 6.
Screening CCc1ccc(Nc2ncnc3nc[nH]c23)cc1 returned BJeLR lethal -1, PrP 5UTR inh -62, Bead autofluor 4486, Mtb hypoxia inh 14, RN4220 kill 4.5, ugtP null kill 4 and Mtb hypoxia inh growth 10.
`CCCc1ncc(C[n+]2ccccc2C)c(N)n1` gave PrP 5UTR inh -12, Bead autofluor 6080, Mtb hypoxia inh 2, RN4220 kill 3.3, ugtP null kill -4 and Mtb hypoxia inh growth -2.
`COc1cc(C(C)=O)ccc1Oc1ncnc2c1cnn2-c1cccc(Cl)c1` gave BJeLR lethal -10, PrP 5UTR inh -22, Bead autofluor 9076, Mtb hypoxia inh 3, RN4220 kill 2.7, ugtP null kill 10 and Mtb hypoxia inh growth 0.
`Fc1cccc(NC(=S)NCCc2ccccc2)c1` gave BJeLR lethal 12, PrP 5UTR inh -35, Bead autofluor 1933, Mtb hypoxia inh 5, RN4220 kill 0.4, ugtP null kill -5 and Mtb hypoxia inh growth 11.
Screening Cc1nc2ccc(S(=O)(=O)NCC(=O)N3CCCCC3)cc2s1 returned BJeLR lethal 1, PrP 5UTR inh -24, Bead autofluor 3040, Mtb hypoxia inh -1, RN4220 kill 1.4, ugtP null kill 2 and Mtb hypoxia inh growth 4.
For O=C(Nc1cccc(Cl)c1)Nc1cc(S(=O)(=O)N2CCCCC2)ccc1Cl the results were BJeLR lethal 0, PrP 5UTR inh -21, Bead autofluor 2097, Mtb hypoxia inh 10, RN4220 kill 19, ugtP null kill 20 and Mtb hypoxia inh growth 0.
CC(=NNC(=O)C1COc2ccccc2O1)c1cccs1 (centres undefined) was read as Mtb hypoxia inh 7, RN4220 kill 2.3, ugtP null kill 2 and Mtb hypoxia inh growth 5.
For CCCCCCC1C(C#N)=C(N)OC2=C1C(=O)CCC2 (centres undefined) the results were BJeLR lethal -4, PrP 5UTR inh -57, Bead autofluor 5485, Mtb hypoxia inh 8, RN4220 kill 2.6, ugtP null kill 7 and Mtb hypoxia inh growth 3.
Screening CC#CCN(CC#CC)S(=O)(=O)c1ccc(-n2cnnn2)c(OC)c1 returned BJeLR lethal 3, PrP 5UTR inh -8, Bead autofluor 6435, Mtb hypoxia inh 3, RN4220 kill 15, ugtP null kill -8 and Mtb hypoxia inh growth -1.
`COc1ccc(OC)c(NC(=O)Cn2c(C)nc3ccccc3c2=O)c1` gave BJeLR lethal -10, PrP 5UTR inh -32, Bead autofluor 4758, Mtb hypoxia inh 3, RN4220 kill 3.1, ugtP null kill -1 and Mtb hypoxia inh growth 4.
O=C(NC(=O)c1c(F)cccc1F)O/N=C1\CCCc2occc21 was read as BJeLR lethal -2, PrP 5UTR inh -22 and Bead autofluor 3526.
For CC(C)NC(=O)CC(=O)NN=C1CCCCC1 the results were BJeLR lethal 1, PrP 5UTR inh -11, Bead autofluor 4397, Mtb hypoxia inh 7, RN4220 kill 0.1, ugtP null kill 4 and Mtb hypoxia inh growth 4.
For COc1ccc(OC2C(=O)N(c3cc(C)ccc3C)C2c2ccc(OC)c(OC)c2)cc1 (centres undefined) the results were BJeLR lethal -4, PrP 5UTR inh -9, Bead autofluor 2376, Mtb hypoxia inh -1, RN4220 kill 7.0, ugtP null kill 6 and Mtb hypoxia inh growth 1.
For COc1cc(NC(=O)COC(=O)/C=C/c2ccccc2Cl)cc(OC)c1 the results were BJeLR lethal 4, PrP 5UTR inh -15, Bead autofluor 2534, Mtb hypoxia inh 8, RN4220 kill 3.0, ugtP null kill 12 and Mtb hypoxia inh growth 1.
O=C(NCc1ccc(F)cc1)C(c1ccc(Cl)cc1)N(C(=O)c1csnn1)C1CC1 (centres undefined) was read as BJeLR lethal -13, PrP 5UTR inh 16, Bead autofluor 4690, Mtb hypoxia inh -2, RN4220 kill -1.5, ugtP null kill 7 and Mtb hypoxia inh growth -1.
CCN(CC(=O)Nc1ccc2c(c1)OCCO2)Cc1cc(=O)oc2cc(C)c(C)cc12 was read as BJeLR lethal -6, PrP 5UTR inh -11, Bead autofluor 10123, Mtb hypoxia inh 3, RN4220 kill 1.8, ugtP null kill -4 and Mtb hypoxia inh growth 9.
`Cc1ccc2cccc(S(=O)(=O)n3nc(C)cc3C)c2n1` gave BJeLR lethal 8, PrP 5UTR inh -24, Bead autofluor 10853, Mtb hypoxia inh 14, RN4220 kill 3.9, ugtP null kill 2 and Mtb hypoxia inh growth 3.
`O=C(NCCN1CCOCC1)c1ccc(CS(=O)(=O)c2ccc(Br)cc2)o1` gave BJeLR lethal 4, PrP 5UTR inh 2, Bead autofluor 4264, RN4220 kill -0.4 and ugtP null kill -1.
For CC1(C)Cc2cccc(OCC(=O)OCC(=O)NCc3ccccc3)c2O1 the results were BJeLR lethal 12, PrP 5UTR inh -5, Bead autofluor 4706, Mtb hypoxia inh 2, RN4220 kill 2.8, ugtP null kill 6 and Mtb hypoxia inh growth 0.
NCCCC[C@@H]1NC(=O)[C@H](CCC(=O)O)NC(=O)c2cc([N+](=O)[O-])cc(I)c2NCC[C@@H](C(N)=O)NC1=O was read as BJeLR lethal -6, PrP 5UTR inh -28 and Bead autofluor 4117.
`CCC(CC)CN1C(Nc2ccccc2)=NCC1C` (centres undefined) gave Mtb hypoxia inh 5, RN4220 kill 2.3, ugtP null kill -10 and Mtb hypoxia inh growth 10.
For Cc1ccccc1N(C(=O)c1ccccn1)C(C(=O)NCc1ccccc1)c1cccnc1 (centres undefined) the results were BJeLR lethal -5, PrP 5UTR inh -27, Bead autofluor 3868, Mtb hypoxia inh 15, RN4220 kill 4.6, ugtP null kill 6 and Mtb hypoxia inh growth -1.
For COC(=O)c1c(C)nc2c(c(SC)nn2-c2ccccc2)c1N the results were BJeLR lethal 2, PrP 5UTR inh 1, Bead autofluor 3293, Mtb hypoxia inh 6, RN4220 kill -1.5, ugtP null kill 24 and Mtb hypoxia inh growth 8.
COc1ccc(C(NC(=O)c2c(F)c(F)c(F)c(F)c2F)c2ccccc2)cc1 (centres undefined) was read as BJeLR lethal -1, PrP 5UTR inh -23, Bead autofluor 1969, Mtb hypoxia inh 0, RN4220 kill 63, ugtP null kill 51 and Mtb hypoxia inh growth -3.
`COc1ccc(C(=O)OCC(=O)Nc2ccc([N+](=O)[O-])cc2OC)c(O)c1` gave BJeLR lethal -12, PrP 5UTR inh -16, Bead autofluor 2296, Mtb hypoxia inh 14, RN4220 kill 5.1, ugtP null kill 7 and Mtb hypoxia inh growth 3.
Screening O=C(NCc1cccnc1)c1ccc(CN2CCc3ccccc3C2)cc1 returned BJeLR lethal 10, PrP 5UTR inh 2, Bead autofluor 3907, RN4220 kill 1.7 and ugtP null kill 2.
COc1cc(/C=N/n2c(C3CCCCC3)n[nH]c2=S)cc(Br)c1O was read as BJeLR lethal -1, PrP 5UTR inh -1 and Bead autofluor 3588.

Not a hit list. About 3.9% of those tested had a hit in this group.
